Screening data (PubChem)
Biofilm kill mix: clotrimazole potentiators killing C. albicans biofilm, primary screen, 4-compound mixtures | inhibition, % at 7.6 µM | C. albicans biofilm persisters + clotrimazole, fluorescence viability; primary screen in compound mixtures of four per well | AID 1242, 2008 | 120,000 tested, 0.02% active;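 active = inhibition above 30.3% in the primary screen of four-compound pools, then above 30% when the compound was retested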;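 note: compounds exposed to preformed 24 h biofilms for 48 h; the number belongs to the whole pool; some results filed as inactive read as strong as hits; inactives centre near 12; 0% = biofilm with clotrimazole alone and 100% = kill control; retested singly at about 60 µM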
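Test system: C. albicans biofilms. Buffer or medium: RPMI/MOPS medium, pH 7.0. Timing: 48 h compound exposure at 37 °C. Technique: Alamar Blue fluorescence. Evaluation: percent inhibition of biofilm viability.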
The depositor's hits bear a star. The list is partial; count on the stated rates, not on these rows.

SMILES | Biofilm kill mix
O=[N+]([O-])c1cc(S(=O)(=O)C(F)(F)F)ccc1N1CCN(c2ccccc2)CC1 | 8.1
COc1ccc2c(c1OC)C(=O)N1N=C(c3ccc(-c4ccccc4)cc3)CC21 (stereo not drawn) | 4.5
COc1cccc(OC)c1OCCOc1ccc(C(=O)c2ccccc2)cc1 | 7.5
O=C(NCc1ccccc1)C(c1ccc(F)cc1)N(Cc1ccc2c(c1)OCO2)C(=O)Cn1nnc(-c2cccs2)n1 (stereo not drawn) | 11.7
O=C(NC1CCN(C(=S)NCCc2ccccc2)CC1)C1CC1 | 12.3
CCn1c(CC(=O)Nc2ccc(Cl)c(Cl)c2)nnc1SCc1ccc(C)cc1 | 15.4
Cc1nn(-c2ccccc2)c(N)c1N=Nc1ccc2ccccc2c1 | -1.3
O=C(C1=NOC(CNc2ncc(C(F)(F)F)cc2Cl)C1)N1CCOCC1 (stereo not drawn) | -8.3
C=CCC(CC=C)(NC(=O)c1ccccc1C(=O)O)c1ccccc1 | 12.4
N#Cc1ccc(COC(=O)c2cc(=O)c3ccccc3o2)cc1 | 4.4
Cc1nnc(-c2ccc(Oc3ccc(Br)cc3)c([N+](=O)[O-])c2)o1 | 4.8
COc1cccc(-c2csc(/C(C#N)=C/Nc3cc4oc5ccccc5c4cc3OC)n2)c1 | 9.6
NC(=O)COC(=O)c1c2c(nc3ccccc13)CCCCC2 | 7.7
COc1ccc([N+](=O)[O-])cc1NC(=O)c1ccc(-n2nc(C)cc2C)cc1 | 5.7
COc1ccc(Oc2nc(-c3ccccn3)nc3ccccc23)cc1 | 2.8
Cc1cccc(OCCCn2c(CO)nc3ccccc32)c1 | 17.9
O=C(O)Cn1c(CCS(=O)(=O)c2ccc(Br)cc2)nc2ccccc21 | 21.4
COC(=O)CCCC(=O)Nc1ccc(Br)cc1 | 11.9
CC(C)OCC1CC(CC(=O)Nc2ccc([N+](=O)[O-])cc2)C(=O)O1 (stereo not drawn) | 24.3
CC(C)=C1SC(N2CCN(c3ccc(C)cc3)CC2)=NC1=O | 3.2
Cc1cc(C(F)F)n2ncc(C(=O)NCc3ccc(F)cc3)c2n1 | 10.6
C=CCN(Cc1nc(-c2cc(OC)ccc2OC)oc1C)C1CCS(=O)(=O)C1 (stereo not drawn) | 7.9
Cc1ccc2[nH]c(=O)cc(C(=O)OC(C)C)c2c1 | 21.7
O=C(Nc1cc(S(=O)(=O)N2CCCCC2)ccc1O)c1ccccc1NS(=O)(=O)c1ccc(F)c(F)c1 | 13.3
O=C(CSc1nc2ccsc2c(=O)n1Cc1ccc(C(=O)O)cc1)NCc1ccco1 | -1.8

More compounds:
SMILES | Biofilm kill mix
O=C(N/N=C/c1cn(-c2ccccc2)nc1-c1cc2ccccc2o1)c1ccncc1 | 18.7
CCCCNC(=O)Cn1nc([N+](=O)[O-])c([N+](=O)[O-])c1C | 7.9
CC(C)(CN1CCc2ccccc2C1)NS(=O)(=O)c1ccc(Cl)cc1 | 4.3
COc1ccc(CCNC(=O)COC(=O)C23CC4CC(CC(Br)(C4)C2)C3)cc1 | 13.5
COc1ccccc1/C=N/NC(=O)CC(=O)NCc1ccccc1 | 14.4
O=C(Cn1c2[n+](c3ccc(C(F)(F)F)cc31)CCCCC2)Nc1ccc(Br)cc1 | 11.6
CCOc1ccc(N2C(=O)CC(N(CCc3ccc(OC)c(OC)c3)C(=O)/C=C/C(=O)O)C2=O)cc1 (stereo not drawn) | 14.4
O=C(CN1CCN(Cc2ccc(Cl)cc2)CC1)N/N=C/c1cccc(F)c1 | 21.6
CC(=O)NC(=S)Nc1ccccc1C(=O)NC1CCCCC1 | 18.9
CCN1CCN(c2oc(COc3ccc(Cl)cc3)nc2C#N)CC1 | 5.1
c1ccc(-n2cccc2)c(N2CCCCC2)c1 | 1.3
O=C(COC(=O)CNS(=O)(=O)c1ccc(F)c(F)c1F)Nc1ccc(OC(F)F)cc1 | -5.3
CCOc1ccc(C(C)NC(=O)c2cccc(F)c2)cc1 (stereo not drawn) | 16.6
CCOc1cccc(C(=O)NNC(=O)CCC(=O)O)c1 | 19.3
CCC(=O)N1CCc2cc(Br)cc(S(=O)(=O)CCC(=O)N(CC)CC)c21 | 11.3
O=C(O)c1ccccc1SCC(=O)N1CCOCC1 | 6.5
Cn1cnc([N+](=O)[O-])c1C(=O)Nc1cccc([N+](=O)[O-])c1 | 2.6
COC(=O)/C(C#N)=C/c1c(N2CCN(Cc3ccc4c(c3)OCO4)CC2)nc2c(C)cccn2c1=O | 21.1
C=CCn1c(SCC(=O)NNC(=O)Nc2ccc(C)cc2)nnc1-c1ccccc1 | 1.2
CCC(=O)Nc1ccc(Cl)c(NC(=O)c2ccc([N+](=O)[O-])cc2)c1 | 22.4
Cc1ccc(/C=N/Nc2nc3ccccc3[nH]2)s1 | 20.3
Cc1cccc(NC(NC(=O)Cc2ccccc2)C(Cl)(Cl)Cl)c1 (stereo not drawn) | 8.2
CCOC(=O)C1(CCCc2ccccc2)CCN(C(=O)C2=C(C)OCCO2)CC1 | 13.0
O=C1N(Cc2cccnc2)C[C@@H]2C[C@@H](c3ccc4nonc4c3)N3CCC[C@@]123 | 17.5
COc1ccc(/C=N/NC(=O)Nc2nonc2N)cc1 | 11.1

A draw from above in order of number of heavy atoms, high to low:
SMILES | Biofilm kill mix
O=C1N(Cc2cccnc2)C[C@@H]2C[C@@H](c3ccc4nonc4c3)N3CCC[C@@]123 | 17.5
O=C(CN1CCN(Cc2ccc(Cl)cc2)CC1)N/N=C/c1cccc(F)c1 | 21.6
CCC(=O)N1CCc2cc(Br)cc(S(=O)(=O)CCC(=O)N(CC)CC)c21 | 11.3
CCC(=O)Nc1ccc(Cl)c(NC(=O)c2ccc([N+](=O)[O-])cc2)c1 | 22.4
Cn1cnc([N+](=O)[O-])c1C(=O)Nc1cccc([N+](=O)[O-])c1 | 2.6
COc1ccc(/C=N/NC(=O)Nc2nonc2N)cc1 | 11.1
Cc1ccc(/C=N/Nc2nc3ccccc3[nH]2)s1 | 20.3

Carrying on:
SMILES | Biofilm kill mix
CC1(c2ccccc2)CC(C)(C)N(C(=O)c2cc([N+](=O)[O-])cc([N+](=O)[O-])c2)c2ccccc21 (stereo not drawn) | 7.7
O=C(Nc1nnc(-c2ccccc2Cl)s1)C1CCN(S(=O)(=O)c2ccc(Cl)cc2)CC1 | 6.5
CC(=O)N1CCN(S(=O)(=O)c2ccc(Cl)cc2F)CC1 | -2.4
O=C(Cc1ccccc1)NC1CCN(Cc2ccccc2)CC1 | 5.7
O=C(Nc1ccccc1)C(c1ccccc1)C1CCCC1 (stereo not drawn) | -1.8
CCN(CC)S(=O)(=O)c1ccc(C(=O)Nc2nnc(CSC)o2)cc1 | -0.7
O=C1CN(C(=O)CNC(=O)c2cccc(Cl)c2)c2ccccc2N1 | -1.4
CCc1ccccc1NC(=S)N(CCN1CCOCC1)Cc1ccccc1F | 13.8
Cc1ccc2c(c1)nnn2C1CCN(C(=O)NCc2ccccc2)CC1 | 16.9
CC(Sc1ccccc1)C(=O)NN=C1CCCC1 (stereo not drawn) | 14.5
CCOC(=O)CCC(=O)NNC(=O)COc1ccc(C(C)C)cc1Br | 15.5
COC(C[C@H](O)CC(=O)COCc1ccccc1)OC | 15.3
Cc1ccc(-c2ncns2)cc1 | 8.3
O=C(CSc1nnc(Cc2ccccc2)o1)c1ccccc1 | 14.9
O=C(CN1CCC(Cc2ccccc2)CC1)N1CCc2ccccc2C1 | 6.8
CCOC(=O)Cc1ccc(NC(=O)c2ccc([N+](=O)[O-])cc2)cc1 | -31.5
CC(=O)Nc1cc(N2C(=O)CCC2=O)ccc1Cl | 24.1
COC(=O)c1sc(NC(=S)NC(=O)c2ccccc2F)nc1C | 19.9
CCCCCNC(=O)c1cc(S(=O)(=O)N2CCCC2)ccc1F | 12.0
CC(C)N1C(=O)CCC1C(=O)NCCc1ccc(Cl)cc1 (stereo not drawn) | 12.4
Cc1cc(C)cc(NC(=S)N(Cc2ccc(Cl)cc2)Cc2ccc(C(=O)O)cc2)c1 | 13.4
CC(=O)n1cc([C@H]2C=C(C(=O)N3CCN(Cc4ccc5c(c4)OCO5)CC3)O[C@@H](OCCCCO)C2)c2ccccc21 | 19.1
COCCn1c(SCC(=O)Nc2cccc(OC)c2)nc2c(oc3ccccc32)c1=O | -3.1
CC1CNCCN1S(=O)(=O)c1cccc2cnccc12 (stereo not drawn) | 0.6
N#Cc1ccc(-c2ccccc2)nc1SCCN1CCOCC1 | 11.6

Continued.
SMILES | Biofilm kill mix
O=C(OCc1ccccc1)/C(=C/c1cccc2ccccc12)NC(=O)c1ccccc1 | 7.9
COc1ccc(NC(=S)N2CCC(N(C)CC3CCCO3)CC2)cc1 (stereo not drawn) | 18.9
Cc1ccccc1NC(=S)NNC(=O)c1ccncc1 | 9.5
COc1ccc(F)cc1C(=O)C1CCCN(Cc2ccc(Oc3ncccn3)cc2)C1 (stereo not drawn) | 15.7
Cc1ccc(-n2nnnc2SCC(=O)N2Cc3ccccc3CC2C(=O)O)cc1 (stereo not drawn) | 8.6
COc1ccccc1NS(=O)(=O)c1ccc(O)c(NC(=S)NCC2CCCO2)c1 (stereo not drawn) | 22.6
CCN(CC)CCCNC(=O)/C=C/C(=O)O | 7.8
COc1cccc(OCC(O)CN2CCN(c3ccccn3)CC2)c1 (stereo not drawn) | 20.7
COc1cccc(/C=c2\s/c(=C\C(=O)C(C)(C)C)[nH]c2=O)c1 | 10.8
Cc1ccc(-c2csc(SCC(=O)Nc3cc(C)on3)n2)cc1 | 6.4
Cc1ccc2cc(CN(Cc3ccco3)C(=S)NCC3CCCO3)c(=O)[nH]c2c1 (stereo not drawn) | 16.3
O=S(=O)(Nc1nc2ccccc2nc1Cl)c1ccc(F)cc1 | 14.5
Cc1nn(C)c(Oc2ccccc2)c1CCNC(=O)CC(C)C | 10.2
O=C(c1cc2ccccc2oc1=O)N(Cc1cccs1)CC1CCCO1 (stereo not drawn) | 13.3
CC(C)NC(=O)NC(=O)COC(=O)c1cccc(S(=O)(=O)N2CCCCC2)c1 | 3.9
Nc1cccc2c1C(=O)N(C(=O)/C=C/c1ccc(F)cc1)C2=O | 12.1
O=C(NCc1cccc(Cl)c1)c1ccc(-c2csnn2)cc1 | 9.6
CC(C)(C)c1cc(C(F)(F)F)n2ncc(-c3ccccc3)c2n1 | 8.0
Cc1ccc(-c2csc(NC(=O)CCNC(=O)c3ccc(Cl)cc3)n2)cc1 | 17.4
COCCn1c(=NC(=O)c2sc3ccccc3c2Cl)sc2cc(S(N)(=O)=O)ccc21 | 14.8
CN1c2ccccc2Oc2nnc(N3CCN(Cc4ccccc4)CC3)cc21 | 10.0
OCCN(CCO)c1ccc(C(c2ccccc2Cl)c2ccc(N(CCO)CCO)cc2Cl)c(Cl)c1 | 13.1
C=CCn1c(O)c(N=Nc2ccccc2C)c2ccccc21 | -2.7
CCCOc1ccc(Cc2c(COCC)[nH]c(=S)[nH]c2=O)cc1 | 21.3
Cc1ccc(/C=C2\SC(=S)N(/N=C/c3cc([N+](=O)[O-])ccc3O)C2=O)o1 | 11.0

Look-ups from above:
Biofilm kill mix result of COc1cccc(/C=c2\s/c(=C\C(=O)C(C)(C)C)[nH]c2=O)c1 → 10.8
Biofilm kill mix result of O=C(O)c1ccccc1SCC(=O)N1CCOCC1 → 6.5

Other compounds follow:
SMILES | Biofilm kill mix
COc1ccccc1N1CCN(c2ncc(C(=O)N3CCN(c4cccc(Cl)c4)CC3)c3ccccc23)CC1 | 19.1
COc1ccc(CCn2c(O)cc3nn(-c4nc5ccccc5s4)c(=O)c-3c2C)cc1 | 17.0
Cc1cccc(NC(=S)N2CCN(C(=O)C3CCCO3)CC2)c1 (stereo not drawn) | 10.8
CCOC(=O)C1(Cc2ccccc2C)CCCN(C(=O)c2ccccn2)C1 (stereo not drawn) | 24.5
Cc1cc2cc(CNC(=O)C3CCCC3)ccc2n1C | 10.3
CCCOCC1CC(CCc2nc(=S)[nH][nH]2)C(=O)O1 (stereo not drawn) | 19.2
O=C1Nc2ccccc2N(O)N1c1ccc(S(=O)(=O)Nc2ccccn2)cc1 | 8.8
O=C(NN=C1CCC(c2ccccc2)CC1)c1ccccc1-n1cccc1 (stereo not drawn) | 8.2
Cc1ccc(CN(C(=O)c2cc(=O)c3cc(C)cc(C)c3o2)C2CCS(=O)(=O)C2)cc1 (stereo not drawn) | 12.2
COc1ccc(C2(CNC(=O)C(=O)Nc3ccc(C)cc3)CCOCC2)cc1 | 2.3
CC(=O)c1ccc(N2CCN(Cc3nc(Cc4ccccc4)no3)CC2)cc1 | 20.1
Cc1ccc(NC(=O)c2ccc(C(C)(C)C)cc2)cc1[N+](=O)[O-] | 11.2
Oc1c(/C=N/Nc2cccc3cccnc23)ccc2ccccc12 | 7.9
Cc1nn(C)cc1CN1CCCC(C(=O)c2ccc(-c3ccccc3)c(F)c2)C1 (stereo not drawn) | 9.6
CN(C)CCN(C(=O)/C=C/c1cccs1)c1nc2ccc(F)cc2s1 | 14.2
N#C/C(=C\c1cn(CCOc2ccccc2)c2ccccc12)C(=O)NCc1cccs1 | -7.7
O=C(N/C(=C\c1ccccc1)C(=O)N1CCN(CCO)CC1)c1ccccc1 | 6.1
Cc1cccc2nc(-c3ccco3)c(Nc3ccccc3)n12 | 7.2
c1ccc(-c2noc(C3CCC3)n2)nc1 | 14.5
Cc1ccc(C(=O)Nc2cccc(C(F)(F)F)c2)cc1Nc1ncnc2nc[nH]c12 | 16.0
CCCOc1ccc(C2=NNC(c3cccs3)=Nc3ccc(OC)cc32)cc1 | 6.2
O=C(O)c1cc(-c2cccs2)nn1-c1ccc(F)cc1 | 8.5
O=C(NNS(=O)(=O)c1ccc2ccccc2c1)c1cc(-c2ccccn2)nc2ccccc12 | 15.3
COc1ccc(OCCOc2ccc(C)nc2[N+](=O)[O-])cc1 | 15.3
Cc1ccc(NC(=S)Nc2ccc(S(=O)(=O)Nc3ncccn3)cc2)c(C)c1 | 12.7

2 entries from above in another layout:
structure: Cc1nn(C)cc1CN1CCCC(C(=O)c2ccc(-c3ccccc3)c(F)c2)C1 (stereo not drawn)
- Biofilm kill mix: 9.6
structure: CC(=O)c1ccc(N2CCN(Cc3nc(Cc4ccccc4)no3)CC2)cc1
- Biofilm kill mix: 20.1
